# Rce1 inhib = yeast Rce1p protease inhibitors, primary screen, biochemical, fluorescence, cell-free homogeneous; 0.27% of 290,000 active; yeast membranes, quenched prenylated peptide cleavage fluorescence; CAAX prenyl protease 2 (Saccharomyces cerevisiae (strain ATCC 204508 / S288c)), Q03530; calls only;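 active = fall in fluorescence gain of 50% or more versus controls, with final raw signal at or below 3038400; inconclusive = same 50% fall but final raw signal above 3038400; inactive = fall in fluorescence gain under 50%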;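 note: plate controls were neutral control wells for no effect and wells lacking membranes for full effect; tested at 10 µM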
# Target sequence (Q03530 whole entry, looked up): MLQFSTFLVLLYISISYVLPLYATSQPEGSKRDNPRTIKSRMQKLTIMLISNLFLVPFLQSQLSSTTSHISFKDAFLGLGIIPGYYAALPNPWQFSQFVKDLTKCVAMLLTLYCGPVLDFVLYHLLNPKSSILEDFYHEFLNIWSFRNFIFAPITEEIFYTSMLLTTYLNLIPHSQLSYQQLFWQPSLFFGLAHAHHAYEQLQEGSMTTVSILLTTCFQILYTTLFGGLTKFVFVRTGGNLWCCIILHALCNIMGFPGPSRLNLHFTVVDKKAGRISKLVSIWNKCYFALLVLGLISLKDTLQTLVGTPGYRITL
# eIF4H inh = human eIF4H binding inhibitors, primary screen, translation initiation inhibitor project, biochemical, uHTS, fluorescence polarization. Eukaryotic translation initiation factor 4H (Homo sapiens), Q15056. eIF4H fluorescence polarization binding assay. inhibition, % at 35 µM. 0.94% of 290,000 active. AID 2012, 2009;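 active = 50% or more with normal probe brightness, or confirmed in later tests; inconclusive = above 50% with abnormal brightness, or retests that disagree; inactive = below 50% or failed in later tests; about a fifth of its hits are not listed in these tables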;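 note: calls also rest on retests at 20 µM and on dose response follow-up; 0% = protein and probe with vehicle and 100% = probe without protein; strong numbers were not always called active; many hits fall short of the cut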
# MT1-MMP act inh = blockers of MT1-MMP proenzyme processing, primary screen, HT1080 RFP-PRO-GFP cells, GFP/RFP fluorescence | GFP/RFP ratio fluorescence, overnight; percent of plate control window, DMSO zero | AID 651647, 2012 | 0.061% of 360,000 active | Matrix metalloproteinase-14 (Homo sapiens), P50281 | GFP/RFP ratio change, % at 20 µM;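 active = GFP/RFP ratio change of at least 30% with cell ATP level not reduced by more than half and red fluorescence within 50% of control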; note: strong numbers were not always called active
#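 Assay system: HT1080 cells carrying an RFP-PRO-GFP reporter | Dosing: Single dose of 20 µM compound, 1% DMSO final | Incubation: Cells overnight before dosing, compound overnight, 37 °C, 5% CO2 | Evaluation: GFP/RFP fluorescence ratio | Control set: DMSO and RFP-L50D-GFP cell wells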
# Env fusion inh = inhibitors of HIV-1 Env-driven cell-cell fusion, primary screen, HeLa-JRFL effector, CEM21 target cells, luciferase; inhibition, % at 12.3 µM; 1.1% of 360,000 active;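 active = mean replicate inhibition score of at least 50 and every replicate individually at or above 50; inconclusive = only one of the two criteria met; inactive = mean below 50 and not all replicates reaching 50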;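 note: 0% = plate neutral controls and 100% = maraviroc near 300 nM; one replicate is shown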
# UUG fidelity = modulators of yeast start codon fidelity, primary screen, whole organism, S. cerevisiae, single point, plate reader | S. cerevisiae UUG-firefly luciferase reporter, luminescence/redox ratio | activity score, % at 18.7 µM | 0.13% of 350,000 active;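 active = replicate mean at a twofold rise or more, about +100% in these data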;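 note: firefly luciferase made from a UUG start codon reports start codon fidelity; reporter light over untreated wells divided by growth signal over untreated wells; some hits fall short of that in this replicate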
# PABP FP inh = PABP poly(A) RNA binding inhibitors, primary screen, biochemical, fluorescence polarization, uHTS. Polyadenylate-binding protein 1 (Homo sapiens), P11940. inhibition, % at 35 µM. 1% of 290,000 active;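 active = 50% or more with normal probe brightness, or confirmed in later tests; inconclusive = above 50% with abnormal brightness, or retests that disagree; inactive = below 50% or failed in later tests; about a fifth of its hits are not listed in these tables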;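 note: calls also rest on retests at 20 µM and on dose response follow-up; controls were probe without protein and protein plus probe with vehicle; some compounds called inactive have numbers as strong as hits; many hits fall short of the cut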
# CSC inhib = cancer stem cell viability inhibitors, primary screen, luminescence | 1.1% of 300,000 active | cancer stem cell-like cells viability | inhibition, % at 7.5 µM;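 active = mean at 75% or more and at least half the replicates too; inconclusive = mean and replicates disagree; tested in HMLE shEcad cells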;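 note: 0% = median of negative and 100% = median of positive control wells; the first replicate is given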
# MT1-MMP act inh RFP = also measured in MT1-MMP act inh; calls as there; RFP signal change, %; measured here: RFP expression control read;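 0 = vehicle wells; hits needed this value within 50% of zero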
# * marks the source's active call; other numbers are inactive results; i = inactive; ? = inconclusive; . = no result given; & = joins results of further samples. Some of the compounds tested (hit frequency here may not be typical).
# Sample of the layout (3 entries):
SMILES,Rce1 inhib,eIF4H inh,MT1-MMP act inh,MT1-MMP act inh RFP,Env fusion inh,UUG fidelity,PABP FP inh,CSC inhib
O=C(NCCc1ccncc1)Nc1cccc(Cl)c1,i,-6,2,-1,-10,-24,12,10
Cc1cc(Cl)c2c(c1)[C@]1(C(=O)N2)[C@@H]2C(=O)N(Cc3ccccc3)C(=O)[C@@H]2[C@@H]2CCCN21,i,-6,-10,1,-156,18,-7,-6
O=S(=O)(NCc1ccccc1)NCc1ccccc1F,i,16,3,5,18,-3,7,-9

# The listing, from the first entry:
SMILES,Rce1 inhib,eIF4H inh,MT1-MMP act inh,MT1-MMP act inh RFP,Env fusion inh,UUG fidelity,PABP FP inh,CSC inhib
O=C(NCCc1ccncc1)Nc1cccc(Cl)c1,i,-6,2,-1,-10,-24,12,10
Cc1cc(Cl)c2c(c1)[C@]1(C(=O)N2)[C@@H]2C(=O)N(Cc3ccccc3)C(=O)[C@@H]2[C@@H]2CCCN21,i,-6,-10,1,-156,18,-7,-6
O=S(=O)(NCc1ccccc1)NCc1ccccc1F,i,16,3,5,18,-3,7,-9
CN(C)C(CNC(=O)c1ccc2ccccc2n1)c1ccccc1 (configuration not stated),i,7,-1,2,-2,.,-5,-15
O=C(Nc1nc(SCc2ccc(F)cc2)ns1)c1ccco1,i,3,-3,-1,.,-6,3,11
COCCn1nnnc1C(c1ccc(C)cc1)N1CCN(Cc2ccc3c(c2)OCO3)CC1 (configuration not stated),i,-2,-6,-3,.,-12,-7,.
CCOC(=O)C(=O)Nc1nccs1,i,-8,3,7,1,-10,-13,-8
CC(=O)N1CCN(S(=O)(=O)c2cccc(C(=O)OCc3cccc(F)c3)c2)CC1,.,.,0,-12,.,13,.,-4
O=C(COC(=O)C1CC(O)CN1S(=O)(=O)c1ccc(Cl)cc1)c1ccccc1Cl (configuration not stated),i,1,-2,3,-20,.,-5,5
O=S(=O)(c1cccc(NC(=S)N2CCN(c3cccc(Cl)c3)CC2)c1)C(F)F,i,17,22,-10,25,.,9,16
O=C(c1cccc(S(=O)(=O)N2CCCCC2)c1)N(CCc1ccccc1)Cc1ccccc1,i,.,-3,-13,31,0,.,18
CC1CC(=O)NN=C1c1ccc(NCCO)c([N+](=O)[O-])c1 (configuration not stated),i,-14,13,0,62*,-2,-6,8
CC1(C)NC(=O)N(CC(=O)OCc2cc(=O)n3cc(Br)ccc3n2)C1=O,.,-2,-2,-3,14,.,-1,-5
O=C(Nc1ccc(S(=O)(=O)NCc2ccco2)cc1)c1ccc(F)cc1,i,20,-2,-18,2,-16,5,-8
CCCC1=C(C(=O)OCC)C(c2sccc2C)n2ncnc2N1 (configuration not stated),i,-9,0,3,2,-17,4,-16
CCCCC(=O)Nc1ccccc1N1CCN(c2ccc(F)cc2)CC1,i,-2,-4,-5,4,6,-1,22
C/C(=N\N(c1ccccc1)c1ccccc1)c1ccco1,i,-7,0,0,17,-4,3,-19
O=S1(=O)c2ccc(Br)cc2N2CCC[C@H]2CN1Cc1ccccc1,.,.,-3,-18,18,-22,.,.
O=[N+]([O-])c1ccc(Nc2nc(N3CCOCC3)nc(N3CCOCC3)n2)cc1,i,.,0,-4,10,-10,.,-12
O=C(NCc1ccco1)c1ccc(CS(=O)(=O)c2cccc(C(F)(F)F)c2)o1,i,6,6,2,-4,-6,16,9
O=[N+]([O-])c1ccn(-c2nc(-c3cccs3)cc(C(F)(F)F)n2)n1,i,0,4,1,-2,-9,8,6
CCC(C(=O)NC1CCCC1)N(C(=O)Cn1nnc(-c2ccc(C)o2)n1)C(C)(C)C (configuration not stated),i,2,-2,-3,-42,22,2,-3
CCN(CC)C(=O)CC(c1ccc(N(C)C)cc1)c1c(OC)cc(OC)c2c(-c3ccccc3)cc(=O)oc12 (configuration not stated),i,-9,2,-15,11,-13,-9,-3
COc1ccc(C(=O)Nn2c(SCc3ccc([N+](=O)[O-])cc3)nc3ccccc3c2=O)cc1,i,-15,1,-1,.,-20,-14,.
CC1CCN(C(=O)CN2C(=O)NC3(CCCc4ccccc43)C2=O)CC1 (configuration not stated),.,.,-6,-3,-10,-4,.,.
CCOC(=O)c1c(NC(=O)Nc2ccc(Cl)cc2)sc(C)c1C,i,6,-12,-7,-20,-35,3,-11
CCOc1ccccc1N(CC(=O)NC1CCCC1)C(=O)CCC(=O)Nc1cc(C)on1,i,-2,3,6,.,8,2,.
Cn1cnnc1SCC(=O)Nc1ccc(Cl)c(S(=O)(=O)N2CCOCC2)c1,i,4,3,3,5,.,-2,-3
CC(C)CN(C(=O)COC(=O)CSc1ccccc1F)c1c(N)n(Cc2ccccc2)c(=O)[nH]c1=O,i,.,-4,3,-13,-7,.,-1
Cc1[nH]c2ccccc2c1C(=O)C(=O)N1CC(C)OC(C)C1 (configuration not stated),i,-7,2,3,.,-16,-2,-8
O=C(Nc1ccccc1Cl)c1cc(C2CCCN(C(=O)c3cccc(O)c3)C2)on1 (configuration not stated),.,.,-1,3,-3,-4,.,.
Oc1cccc2c3c(oc12)CCCC3,i,.,3,7,-15,-17,.,-16
O=C(CSc1ccc2nnc(-c3ccccc3)n2n1)NCC1CCCO1 (configuration not stated),i,3,14,-1,.,12,-13,-10
CN1CCN(C(=O)c2ccc(-c3ccc(F)c(F)c3)c3ccoc23)CC1,.,.,4,-2,-5,-24,.,.
O=C1c2ccccc2NC(c2ccccc2)N1Cc1ccco1 (configuration not stated),i,-5,-1,-3,.,-11,-7,-9
CC(=O)c1cccc(OCC(=O)c2cc(C)n(-c3cc(C)on3)c2C)c1,i,-1,2,-8,-22,-19,0,16
O=C(O)c1cc(Br)ccc1NS(=O)(=O)c1cccc2nsnc12,i,8,0,0,1,-27,10,7
COc1ccccc1-n1c(=O)c(C#N)c(-c2ccc([N+](=O)[O-])cc2)c2cc(C(=O)c3ccccc3O)cnc21,i,4,-3,-4,3,-9,-20,9
c1csc(COc2ccccc2CNC2CCCCC2)c1,i,-3,1,-2,19,.,10,.
COc1ccc(NC(=S)N2CCC(NC(=O)c3ccccc3C)CC2)cc1,i,-5,3,3,8,-11,6,.
Cc1c(C(=O)NCc2ccco2)oc2c(Cl)cccc12,.,.,0,3,13,-20,.,.
O=C(NCCc1ccc(Cl)cc1)c1cnc2n(c1=O)CCS2,i,-6,1,0,-17,-17,1,-16
Oc1cccc(C(Nc2nccs2)c2ccc3cccnc3c2O)c1 (configuration not stated),i,23,3,-4,36,.,-3,110*
CCOC(=O)c1[nH]c2ccc(Br)cc2c1NC(=O)CCN1CCC(C)CC1,i,0,1,-5,-50,-16,-9,7
O=C(Nc1ccc(F)c(Cl)c1)c1cc(C2CCCCN2C(=O)CCc2ccccc2)on1 (configuration not stated),.,.,-9,-18,?,-11,.,.
CC(C)(C)N(Cc1ccccc1)C(=O)COc1cccnc1[N+](=O)[O-],i,-1,-1,-2,4,-9,-4,25
Cc1nn2c(-n3ccnc3)c3c(nc2c1-c1ccccc1)CCC3,i,-4,-6,-4,-93,-25,-1,-15
CCOC(=O)C1=CCC2c3c(c4ccccc4n3C)C(=O)C1N2C(=O)OC(C)(C)C (configuration not stated),.,.,-2,0,-1,-15,.,-7
O=C(COC(=O)CNC(=O)c1ccccc1)Nc1ccc(Cl)cn1,.,.,0,5,.,-13,.,8
COc1cc(CCC(=O)N2CCN(c3ccc([N+](=O)[O-])cc3)CC2)cc(OC)c1OC,i,-4,2,-1,6,16,0,-4
CSc1ccc(C#N)cc1NC(=O)c1ccccc1C,i,-3,-7,-2,15,4,5,7
CC(=O)c1ccc(NC(=S)N2c3ccccc3CC2C)cc1 (configuration not stated),i,-10,0,3,12,-11,5,-12
COc1ccc(NC(=O)CNS(=O)(=O)c2cccc3nonc23)c(OC)c1,i,2,0,6,-51,.,6,-9
Cc1ccc(C)c(N2CCN(c3cnn(-c4nc5ccccc5s4)c(=O)c3Cl)CC2)c1,i,4,-1,-3,-61,-26,27,6
Cn1c(=O)c2c(ncn2CCOc2ccc(Br)cc2)n(C)c1=O,i,1,-1,-16,3,-7,-1,5
C[C@@H]1CN([C@H](C)CO)C(=O)c2cc(Br)cnc2O[C@@H]1CN(C)Cc1ccc(F)cc1,.,.,1,0,-13,-3&-3,.,.
CCC(C)Sc1nc2c(c(=O)[nH]c(=O)n2C)n1Cc1ccccc1Cl (configuration not stated),i,1,-4,-9,.,-9,0,-22
Cc1sc2ncnc(N3CCC(C(=O)Nc4ccc(F)cc4Cl)CC3)c2c1C,.,.,1,-5,.,-4,.,4
COc1ccc(C2=NO[C@@H]3C(=O)N(c4c(C)cccc4C)C(=O)[C@H]23)cc1OC,i,-3,4,3,-27,5,-6,-9
CC1=CCC2C(=O)N(c3ccc(C(=O)Nc4ccccc4Cl)cc3)C(=O)C2C1 (configuration not stated),i,-7,-2,3,17,-10,-3,2
C=CCn1cc(C(=O)NCCOC)c(=O)c2cc(S(=O)(=O)N3CCCCCC3)ccc21,i,-5,-8,0,3,-11,8,-22
O=C(c1ccnc(Cl)c1)N1CCCC(N2CCN(c3ccccc3F)CC2)C1 (configuration not stated),i,-11,6,-1,-11,-9,-7,-10

# A second format for 7 compounds above:
# Under each structure: Rce1 inhib | eIF4H inh | MT1-MMP act inh | MT1-MMP act inh RFP | Env fusion inh | UUG fidelity | PABP FP inh | CSC inhib
- CC(=O)c1ccc(NC(=S)N2c3ccccc3CC2C)cc1 (configuration not stated)
 : i | -10 | 0 | 3 | 12 | -11 | 5 | -12
- Cc1nn2c(-n3ccnc3)c3c(nc2c1-c1ccccc1)CCC3
 : i | -4 | -6 | -4 | -93 | -25 | -1 | -15
- O=C(c1ccnc(Cl)c1)N1CCCC(N2CCN(c3ccccc3F)CC2)C1 (configuration not stated)
 : i | -11 | 6 | -1 | -11 | -9 | -7 | -10
- O=C(COC(=O)CNC(=O)c1ccccc1)Nc1ccc(Cl)cn1
 : . | . | 0 | 5 | . | -13 | . | 8
- COc1ccc(NC(=O)CNS(=O)(=O)c2cccc3nonc23)c(OC)c1
 : i | 2 | 0 | 6 | -51 | . | 6 | -9
- CC1=CCC2C(=O)N(c3ccc(C(=O)Nc4ccccc4Cl)cc3)C(=O)C2C1 (configuration not stated)
 : i | -7 | -2 | 3 | 17 | -10 | -3 | 2
- C=CCn1cc(C(=O)NCCOC)c(=O)c2cc(S(=O)(=O)N3CCCCCC3)ccc21
 : i | -5 | -8 | 0 | 3 | -11 | 8 | -22
